# Screens (PubChem BioAssay)
# TAR Tat displ: HIV-1 TAR-Tat binding disruption; HIV-1 TAR RNA, Tat peptide displacement FRET; stronger effect = higher value; z-score (test concentration not listed); 100,000 compounds, 0.6% hits; AID 1259389;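 further: score is relative to mean and SD of negative controls; some compounds called inactive have numbers as strong as hits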
# CDC25B CDK2 inh: human CDC25B-CDK2/CyclinA binding inhibition; z-score (no concentration beside the values); HTRF CDC25B-CDK2/CyclinA binding, anti-His/anti-Flag; stronger effect = higher value; 94,000 compounds, 0.72% hits;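 further: score is relative to mean and SD of negative controls; strong numbers were not always called active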
# Active calls of the source: *; . = no result given; & = joins results of further samples.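 How the source made its calls: active means z-score from 3 up in half or more of its runs; inactive means the rest.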
compound	TAR Tat displ	CDC25B CDK2 inh
CCn1c(=O)n(Cc2ccc3c(c2)OCO3)c(=O)c2oc3ccccc3c21	1.17	.
CCn1nc(-c2cccs2)cc1C(=O)Nc1ccccc1	.	-1.42
Cc1nc(N2CCN(C)CC2)cc(N2CCN(S(=O)(=O)c3ccccc3F)CC2)n1	0.16	-1.51
Cc1nn(S(=O)(=O)c2ccc(F)cc2)c(C)c1S(=O)(=O)N1CCCC(C)C1 (centres undefined)	1.62	.
Cc1oc2ncn3c(C)nnc3c2c1C(=O)O	1.42	-0.93
Cc1ccc2c(c1)NC(C1CC1)=NC(c1ccc(F)cc1)=N2	0.5	1.16
O=C(NCc1ccco1)c1cnc(N2CCOCC2)nc1	0.93	.
O=C(C1=C(O)C(=O)N(CCN2CCOCC2)C1c1cccnc1)c1cccs1 (centres undefined)	.	-0.42
O=C(CN1C(=O)c2ccccc2C1=O)N1CCOCC1	.	-0.22
COCCN1C(=O)c2oc3cc(C)cc(C)c3c(=O)c2C1c1cccc(O)c1 (centres undefined)	-1	-2.16
O=[N+]([O-])c1ccc(N2CCOCC2)cc1	.	-0.67
O=C(Nc1ccc(F)c(F)c1F)c1cnccn1	.	-1.66
Clc1cccc(-c2nn3cnnc3s2)c1	-1.05	-0.97
COC(=O)c1c(C)sc2cc(C(C)(C)C)sc12	.	-1.31
CC1(C(=O)Nc2nc3ccccc3s2)Cc2ccccc2C(=O)O1 (centres undefined)	1.4	-0.96
COC(=O)c1sc(-c2ccc(Cl)cc2)cc1N	-0.25	-0.83
O=C(NCC(c1ccco1)S(=O)(=O)c1ccc(F)cc1)C(=O)NC1CCCCC1 (centres undefined)	1.25	.
CCn1nc(C)c(CCNC(=O)C2CCN(c3nn4c(=O)c5c(nc4s3)CCCC5)CC2)c1C	0.28	.
COc1ccc(-c2nc(Cn3nc(C)c4c(C)onc4c3=O)c(C)o2)c(OC)c1	-1.45	.
Cc1cc2c(cc1C)N(C(=O)CSC1=NCCS1)C(C)(C)c1ssc(=S)c1-2	.	-3.11

# (next part)
compound	TAR Tat displ	CDC25B CDK2 inh
CC(C(=O)NCc1cccs1)n1ccc2cc(S(=O)(=O)N3CCCC3)ccc21 (centres undefined)	-0.15	.
Cn1nc(C(=O)NC2CCCCC2)c2c1-c1ccccc1S(=O)(=O)C2	1.55	-0.36
COc1ccc2c(c1)c(=O)oc1cc3occ(-c4ccc(C)cc4)c3cc12	0.14	1.05
Cn1c(=O)n(C)c2cc(S(=O)(=O)NCCO)ccc21	1.05	-0.65
CCCc1cc(=O)n2nc(N(C)CC(=O)NCCN3CCCC3)sc2n1	1.16	-0.93
CC(C)NC(=O)C1CCCN(S(=O)(=O)c2ccc3c(ccn3C)c2)C1 (centres undefined)	1.7	.
CN(C)c1c(F)cc(C(=O)NC(=O)NCc2cccnc2)cc1F	.	-1.06
Cc1nnc2n1N=C(c1ccc(Br)cc1)CS2	.	-0.66
CCCCC1=NC2(CCCC2)C(=O)N1Cc1ccc(-c2ccccc2-c2nn[nH]n2)cc1	1.06&1.47	.
CCOC(=O)c1c(N)sc(SC#N)c1-c1ccccc1	0.53	-10.5
Cc1cc2n(n1)CCCN2CC(=O)N1CCc2ccccc21	0.11	.
O=C(CCc1nc(-c2ccco2)no1)Nc1ccccc1	1.58	-0.47
COC(=O)c1sc(N2C(=O)c3oc4ccccc4c(=O)c3C2c2cccs2)nc1C (centres undefined)	2.11	-2.14
CCN(CC)C(=O)CSc1nc(-c2ccc(C)cc2)c(C#N)c(=O)[nH]1	0.76	-2.55
Cc1cc(C)c2c(C)nn(-c3ccc(Cl)cc3)c2n1	1.51	-1.22
CCOC(=O)C1CCN(C(=O)Cn2c(C)cc3ccccc3c2=O)CC1	.	-0.12
COc1ccc(OC)c(NC(=O)CSc2nc(-c3ccco3)nc3c2c(=O)n(C)c(=O)n3C)c1	.	-1.68
CN1C(=O)C(C)(C)c2cc(S(=O)(=O)CCC(=O)NC3CCCC3)ccc21	2.77	.
c1cc2c(cc1CN1CCN(C3CCCCC3)CC1)OCO2	.	-1.89
O=C(CCSc1nc2ccccc2o1)Nc1ccccc1	.	0.29

# Later entries
compound	TAR Tat displ	CDC25B CDK2 inh
O=C(NCc1ccco1)c1noc2ncnc(N3CCOCC3)c12	0.2	.
COc1cccc(C2C(C#N)=C(N)OC3=C2C(=O)CCC3)c1OC(=O)c1ccco1 (centres undefined)	.	-1.81
CCOC(=O)c1c(C)[nH]c(C)c1S(=O)(=O)NC(C)Cc1ccco1 (centres undefined)	1.2	.
CCC1Oc2ccc(C)cc2N(Cc2ccc(F)cc2)C1=O (centres undefined)	.	-0.16
Cc1cc(C)nc(SCC(=O)c2ccc(O)c(O)c2)n1	2.02	-0.72
O=C1CSc2nnc(-c3cccc(Cl)c3)n2N1	2.66	-2.25
CCOC(=O)CSc1nn(-c2ccccc2)c(=S)s1	0.26	0.22
O=C(NCC1CCCO1)c1ccc2c(O)c(S(=O)(=O)c3ccccc3)c(=O)[nH]c2c1 (centres undefined)	0.25	.
COc1ccc(C(=O)CSc2ccc3nnc(-c4ccc(OC)c(OC)c4)n3n2)cc1	.	-2.49
CCSc1ncc(CO)n1Cc1ccc(F)cc1	0.78	.
c1cnc(N2CCN(Cc3nnc(-c4ccc5c(c4)OCO5)o3)CC2)nc1	1.33	-0.72
Cc1ccc(-c2csc3ncn(Cc4ccc(F)cc4)c(=O)c23)cc1F	0.91	0.76
Clc1cccc(N2CCN(CCCNc3nc4ccccc4c4nc(-c5cccnc5)nn34)CC2)c1	2.96	-0.61
C=C(C)Cn1c(C2CC(=O)N(c3cccc(Cl)c3)C2)nc2ccccc21 (centres undefined)	3.21	-2.17
O=C1NC2(CCCCC2)N=C1c1ccccc1	.	-0.06
C=CCc1cccc(/C=N/NC(=O)c2cc(C34CC5CC(CC(C5)C3)C4)[nH]n2)c1O	.	-1.67
Cc1nc(N2CCN(c3ccccc3F)CC2)nc2c1C(=O)CCC2	1.57	-4.18
CCC1(C)Cc2c(C#N)c(N)n(-c3ccccc3)c(=S)c2CO1 (centres undefined)	-2.4	-2.79
CCOC(=O)C1CCCN(S(=O)(=O)c2ccc3[nH]c(=O)oc3c2)C1 (centres undefined)	0.19	-0.73
COc1ccc(OC)c(Nc2c(C)c(C)nc3ncnn23)c1	1.07	.

# (continued)
compound	TAR Tat displ	CDC25B CDK2 inh
COc1cc(C2C3=C(CCCC3=O)NC3=C2C(=O)CCC3)ccc1OCc1cccc(F)c1	0.51	-1.94
CCOC(=O)c1ccc(NC(=O)/C(C)=C/C(=O)O)cc1	.	-0.99
Cc1ccc(CN2CCc3nc(Nc4ccc5c(c4)OCCO5)ncc3C2)s1	1.62	.
CCCc1nnc(NC(=O)c2nc(S(=O)(=O)CC)ncc2Cl)s1	0.86	0.02
CN(C)CCn1c(=O)c2[nH]cnc2n(C)c1=O	0.56	-1.41
CN1C(=O)Cc2cc(S(=O)(=O)CCC(=O)NCc3ccc4c(c3)OCO4)ccc21	-0.11	.
CC(C)NC(=O)C1CCC(Cn2c(=O)c3sccc3n(CC(=O)NCc3ccco3)c2=O)CC1 (centres undefined)	0.02	.
CCOC(=O)C(=O)N(CC(C)C)CC(C)C	1	-1.78
CCN(CC)S(=O)(=O)c1ccc(N2CC(O)=C(c3nc4ccccc4c(=O)[nH]3)C2=N)cc1	0.5	-2.86
Cc1ccc(C)c(-c2cc(C(=O)O)c3ccccc3n2)c1	.	1.47
CCCCc1nc2ccccc2n2cc3c(=O)n(C)c(=O)n(C)c3c12	0.76	0.7
C#CCSc1nc2c(c(=O)[nH]1)C(c1cc(Br)ccc1OC)CC(=O)N2 (centres undefined)	2.1	-1.86
CCCC12C3C=CC(C3)C1([Si](C)(C)C)C2C(=O)O (centres undefined)	.	2.04
C=CCN(Cc1nc(-c2ccccc2)no1)S(=O)(=O)c1ccc(Br)cc1	0.62	1.1
CCn1cc(S(=O)(=O)c2ccc(Cl)cc2)c(=O)c2cc(OC)ccc21	-0.03	1.16
COc1cc(C2CC(=O)N3CN(c4ccc(Cl)cc4)CSC3=C2C#N)ccc1O (centres undefined)	25.2*	4.18*
COc1ccc(N2CCN(C(CNS(=O)(=O)c3ccc(Cl)cc3)c3ccco3)CC2)cc1 (centres undefined)	0.62	.
CCCSc1nc2c(c(=O)[nH]1)C(c1ccc(C)cc1)C(C(=O)OC(C)C)=C(C)N2 (centres undefined)	2.09	-1.23
NC(=O)Cn1c(=O)n(Cc2ccco2)c(=O)c2oc3ccccc3c21	1.96	.
N#Cc1ccccc1-n1ccc2ccccc21	.	-1.41

# New compounds follow:
# Each structure is followed by: TAR Tat displ | CDC25B CDK2 inh
- CCOc1ccc(S(=O)(=O)[C@H]2CS(=O)(=O)C[C@@H]2N2CCN(c3ncccn3)CC2)cc1
 : 1.18 | -1.5
- COc1ccc(S(=O)(=O)N2CCc3cc(-c4ccsc4)ccc32)cc1
 : 3.12 | -2.11
- O=C(CC1SC(=O)NC1=O)Nc1ccc(Cl)cc1 (centres undefined)
 : -0.19 | -0.36
- Cc1cc2oc3c(c(=O)c2cc1C)C(c1ccc(O)cc1)N(CCCN(C)C)C3=O (centres undefined)
 : 0.7 | -1.43
- NC(=S)N/N=C/c1c(Sc2ccc(Cl)cc2)nc2sccn12
 : . | -1.15
- CCn1c(SCc2nc(-c3cccs3)no2)nnc1-c1ccncc1
 : 1.76 | -2.07
- COc1ccc(NC(=O)c2nc(SC)ncc2Cl)cc1Cl
 : 2.19 | 0.96
- Cc1ccc(-n2c(SCc3nc(-c4cccs4)no3)nnc2-c2ccncc2)cc1C
 : 1.9 | -1.08
- COc1ccccc1/C=C/c1nc(C#N)c(NCCCN2CCOCC2)o1
 : 0.18 | 0.29
- CCOC(=O)N1CCN(S(=O)(=O)N2CCCC(C(=O)NCCN(C)C)C2)CC1 (centres undefined)
 : 2.42 | .

# A draw from above in order of heavy-atom count, largest number first.
# Each structure is followed by: TAR Tat displ | CDC25B CDK2 inh
- Cc1cc2oc3c(c(=O)c2cc1C)C(c1ccc(O)cc1)N(CCCN(C)C)C3=O (centres undefined)
 : 0.7 | -1.43
- CCn1c(SCc2nc(-c3cccs3)no2)nnc1-c1ccncc1
 : 1.76 | -2.07
- NC(=S)N/N=C/c1c(Sc2ccc(Cl)cc2)nc2sccn12
 : . | -1.15
- COc1ccc(NC(=O)c2nc(SC)ncc2Cl)cc1Cl
 : 2.19 | 0.96

# (listing goes on)
# Each structure is followed by: TAR Tat displ | CDC25B CDK2 inh
- CC(C)N(C)Cc1ccccc1-c1ccc2c(c1)CN1CCC(O)C1=N2 (centres undefined)
 : 2.65 | .
- COc1ccc(Cn2cnc([N+](=O)[O-])c2)cc1Br
 : 1.24 | -1.28
- C=CCn1c(=S)[nH]c2c(OC)c(OC)c(OC)cc2c1=O
 : . | -1.59
- COC(=O)CN1C(=O)CSc2ccc(S(=O)(=O)N3CCOCC3)cc21
 : -0.73 | .
- Cc1nnc2c(NCc3ccccc3)nc3ccccc3n12
 : 2.99 | -1.51
- O=C(CCS(=O)(=O)c1cccc2nonc12)N1CCN(c2ccccc2F)CC1
 : . | 0.05
- S=C(NCc1cccnc1)SCc1cc(Cl)sc1Cl
 : . | -0.54
- N#C/C(=N\Nc1ccc(F)cc1)S(=O)(=O)c1ccccc1
 : . | -0.79
- Cn1c(CN2CCCCC2)nc2cc(NS(=O)(=O)c3ccc(Cl)cc3)ccc21
 : -0.09 | -0.35
- Cc1nnc2sc(-c3ccc(CNS(=O)(=O)c4ccccc4)cc3)nn12
 : 2.81 | .

# The list goes on (2 carried over from the part before).
# Each structure is followed by: TAR Tat displ | CDC25B CDK2 inh
- Cn1c(CN2CCCCC2)nc2cc(NS(=O)(=O)c3ccc(Cl)cc3)ccc21
 : -0.09 | -0.35
- Cc1nnc2sc(-c3ccc(CNS(=O)(=O)c4ccccc4)cc3)nn12
 : 2.81 | .
- O=C(O)c1n[nH]c(=O)c2ccccc12
 : 2.18 | .
- Cc1nc(Oc2ccc3cnccc3c2)c2c3c(sc2n1)CCCC3
 : 0.8 | .
- O=C1C2N=NN(Cc3ccccc3Cl)C2C(=O)N1c1ccccc1 (centres undefined)
 : 0.79 | -0.1
- CC1CCCC(C)N1C(=O)c1cc2c(s1)-c1ccc(Cl)cc1S(=O)(=O)C2 (centres undefined)
 : 2.26 | -0.32
- CCC(CC)C(=O)Oc1cccc(-n2cnnn2)c1
 : 0.2 | -0.36
- CCCCOC(=O)CCc1c(C)[nH]c(=S)[nH]c1=O
 : . | -4.22
- CCOC(=O)C1=C(C)NC2=C(C(=O)C(C(=O)OC)C(C)C2)C1c1ccc(C)cc1 (centres undefined)
 : 0.1 | -1.37
- CCOC(=O)C1CCCN(C(=O)CCc2nnc3ccc(N4CCCC4)nn23)C1 (centres undefined)
 : 0.1 | .
- Cn1cccc1-c1cc2n(n1)CCCN2C(=O)CCC(=O)NCCCN1CCOCC1
 : 0.22 | .
- C=CCNC(=O)C(=O)NCC(c1cccs1)S(=O)(=O)c1cccs1 (centres undefined)
 : 1.12 | .

# Compound profiles (already shown).
# Results for CCn1nc(C)c(CCNC(=O)C2CCN(c3nn4c(=O)c5c(nc4s3)CCCC5)CC2)c1C : TAR Tat displ: 0.28; CDC25B CDK2 inh: .
# Results for CCOC(=O)C1CCCN(C(=O)CCc2nnc3ccc(N4CCCC4)nn23)C1 (centres undefined) : TAR Tat displ: 0.1; CDC25B CDK2 inh: .

# (cont.)
# Each structure is followed by: TAR Tat displ | CDC25B CDK2 inh
- CSc1ccc(CCNC(=O)Cn2ncc3ccsc3c2=O)cc1
 : -0.08 | 0.6
- CC(NC(=O)c1cccs1)C(c1cccs1)N1CCN(c2ccc(F)cc2)CC1 (centres undefined)
 : . | -1.54
- O=C(Cn1c(=O)oc2cc(S(=O)(=O)N3CCCC3)ccc21)NCc1cccnc1
 : -0.49 | -0.6
- Cc1ccc(C2NC(C(=O)O)Cc3c2[nH]c2ccccc32)cc1 (centres undefined)
 : 0.37 | -0.44
- OCCNc1ncnc2c1oc1ccccc12
 : 2.1 | -0.82
- Cc1ccc(C2CC(c3ccc(NS(C)(=O)=O)cc3)=NN2S(=O)(=O)c2ccc(C)cc2)cc1 (centres undefined)
 : -1.51 | .
- Cc1cc(C)cc(Oc2nc3ccccc3n3c(=O)[nH]nc23)c1
 : 0.15 | 0.87
- O=C(CCN1C(=O)/C(=C/c2ccc3c(c2)OCO3)SC1=S)NC1=NCCS1
 : . | -7.32
